# gsp antag – antagonizes gsp, the McCune-Albright syndrome mutation; Potency, µM (series often up to 76.9 µM), without a hit: top-dose activity change, negative = inhibition, usual class: inhibitors; 340,000 tested, 0.4% active; gsp-mutant cells, cAMP HTRF, 30 min; control for the full effect not named in the record; active = falling curve of any shape with a large fitted effect; inconclusive = falling curve, mostly with a smaller effect; inactive = flat or rising curve; cell line not stated here;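 note: intracellular cAMP measured with PDE inhibitor Ro 20-1724 present during compound exposure; potency is the fitted concentration of half-maximal effect; % is set by controls: 0 for no effect and ±100 for the full control effect; nearly all actives have a fitted effect of over 65% in size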
#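 Cells in G418 medium, seeded 16-24 h, 37C; buffer exchange to DPBS + 1 mM CaCl2, 0.5 mM MgCl2, 0.05% BSA; cpds in DMSO + […] (300 uM stock), 30 min 37C; HTRF cAMP detection.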
# CtBP-E1A inh – inhibitors of CtBP/E1A interaction. AlphaScreen GST-E1A/His-CtBP binding, 1536-well; stronger effect = lower value; control for the full effect not named in the record. activity change, % (test concentration not listed). 340,000 tested, 0.49% active; in the data active means activity change below about -65%; inconclusive means about -30% to -65%; inactive means above about -30%; note: % is set by controls: 0 for no effect and ±100 for the full control effect; compound concentration not given in the record
#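 Steps: dispense buffer (Tris pH 8.0, NaCl 300 mM, TCEP 1 mM, BSA, Tween 20); add 5X protein mix (GST-E1A, His-CtBP, 125 nM each); pin 23 nL compound; 2 h at 37 °C, dark; add 5X beads (50 ug/mL); 1 h; read.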
# Six1-Eya2 inh – blocks human Six1 binding to Eya2 | Q15475+O00167 | AlphaScreen GST-Six1/His-Eya2 binding, biochemical; stronger effect = lower value; control for the full effect not named in the record | activity change, % (no concentration beside the values) | 360,000 tested, 0.56% active | AID 651725; in the data active = activity change below about -65%; inconclusive = about -30% to -65%; inactive = above about -30%; note: % is set by controls: 0 for no effect and ±100 for the full control effect; compound concentration not given in the record
# Target sequence (O00167 whole entry, looked up): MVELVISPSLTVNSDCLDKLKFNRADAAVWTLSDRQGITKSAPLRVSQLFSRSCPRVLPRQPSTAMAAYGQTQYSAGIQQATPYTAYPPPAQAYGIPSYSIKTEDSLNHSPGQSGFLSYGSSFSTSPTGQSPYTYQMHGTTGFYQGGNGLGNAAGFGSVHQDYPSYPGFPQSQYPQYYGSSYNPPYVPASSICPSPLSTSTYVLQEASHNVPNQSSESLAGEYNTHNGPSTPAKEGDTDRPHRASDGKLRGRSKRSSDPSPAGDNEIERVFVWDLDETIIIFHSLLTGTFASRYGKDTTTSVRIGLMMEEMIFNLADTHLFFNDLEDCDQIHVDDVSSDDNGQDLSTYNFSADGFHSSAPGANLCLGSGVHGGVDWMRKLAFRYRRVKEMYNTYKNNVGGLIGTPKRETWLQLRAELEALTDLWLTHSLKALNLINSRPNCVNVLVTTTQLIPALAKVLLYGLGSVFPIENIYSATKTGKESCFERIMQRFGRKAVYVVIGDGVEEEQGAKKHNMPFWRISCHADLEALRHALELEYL
# Target sequence (Q15475 whole entry, looked up): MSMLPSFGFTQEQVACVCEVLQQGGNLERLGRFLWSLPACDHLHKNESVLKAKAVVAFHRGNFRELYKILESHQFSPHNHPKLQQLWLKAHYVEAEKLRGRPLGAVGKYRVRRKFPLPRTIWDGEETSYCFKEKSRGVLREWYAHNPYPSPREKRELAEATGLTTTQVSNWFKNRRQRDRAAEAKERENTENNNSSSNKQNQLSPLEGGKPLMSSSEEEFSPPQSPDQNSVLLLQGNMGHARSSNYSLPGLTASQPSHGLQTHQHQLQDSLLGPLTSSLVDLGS
#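 GST-Six1 + His-Eya2 (5X stock: 250/500 nM); Tris pH 8.0, 300 mM NaCl, 0.05% BSA, 0.02% Tween 20; GSH donor/Ni acceptor beads; 1 h 37 °C dark; AlphaScreen readout.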
# gsp ag – gsp mutant agonism. Potency, µM (titrated, usually from 76.9 µM), for the others: at the top dose activation (cAMP increase), most hits filed as activators. gsp mutant cells, cAMP HTRF, 30 min; control for the full effect not named in the record. 340,000 tested, 0.13% active. AID 624287; active = well fitted activation curve with a large enough effect; inconclusive = small, poorly fitted or top-dose-only effect, or another doubt; inactive = no such curve, though single readings can be large or run the other way; cell line not stated here;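 note: phosphodiesterase inhibitor Ro 20-1724 added with compounds to block cAMP breakdown; potency is the fitted concentration of half-maximal effect; nearly all actives have a fitted effect of over 60% in size; about a fifth of the inactives were tested at one dose only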
#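 Cells in DMEM/10% FBS with G418 were pretreated with compounds in DMSO plus […] (300 uM stock) for 30 min at 37C. cAMP was measured by HTRF (cAMP-d2 plus anti-cAMP antibody-K) after 30 min at room temperature.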
# D2 ag – activates the human D2 dopamine receptor | P14416 | DiscoveRx PathHunter D2 beta-arrestin, luminescence, 90 min; 100% = 57 uM dopamine signal | activation, % (concentration not given with the values) | 360,000 tested, 0.084% active; in the data active = activation above about 40%; inconclusive = about 15% to 40%; inactive = below about 15%; note: compound concentration not given in the record; the text of the record calls up to 30% inactive
#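 Agonist mode: compounds alone added to overnight-plated D2 PathHunter cells for 90 min at 37 C, with 57 uM final dopamine (EC100) defining full response. Beta-arrestin recruitment detected by chemiluminescent reagent, read after 1 h at ambient temperature.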
# D2 PAM – positive allosteric modulators of human D2 dopamine receptor; DiscoveRx D2 beta-arrestin cells, luminescence, 90 min; 100% = 57 uM dopamine signal; potentiation, % (concentration not given with the values); 360,000 tested, 0.23% active; AID 624464; active = potentiation of 50% or more; inconclusive = 30% to 50%; inactive = 30% or less;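 note: compound concentration not given in the record; tested on top of an EC20 dose of dopamine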
#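 PathHunter beta-arrestin assay in DiscoveRx D2 cells. Compounds were added with an EC20 of dopamine (50 nM final) for 90 min at 37 deg C. Luminescence was read 1 h after detection reagent, with 57 uM dopamine as the EC100 control.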
# An asterisk follows results filed as active; ? = inconclusive; / = not tested or not shown; [ ] = dose if it differs, or a comment.
SMILES,gsp antag,CtBP-E1A inh,Six1-Eya2 inh,gsp ag,D2 ag,D2 PAM
CCN1C(=O)c2cccc3c(S(=O)(=O)Nc4ccncc4)ccc1c23,1%,0,-1,1%,-1.5,1
Cc1ccc(NC(=O)Cn2cccc2)cc1Cl,-8%,-22,-24,-1%,-2.8,-14
CCOC(=O)c1ccc(NC(=O)Cn2c(C)nc3c(sc(=S)n3CC)c2=O)cc1,7%,-4,2,56%,-1.8,-9
N#Cc1ccccc1CSc1nc(N)cc(N)n1,3%,-9,6,1%[15.4 µM],9.4,-4
O=C(CCCNS(=O)(=O)c1ccccc1)NCc1ccco1,-4%,5,4,-61%[inhibitor],-2.0,-6
O=C(NCCCN1CCOCC1)c1ccc2c(c1)N(Cc1c(F)cccc1Cl)C(=O)CS2,2%,3,6,8%[15.4 µM],-1.8,-10
C[C@H](CO)N1C[C@H](C)[C@@H](CN(C)S(=O)(=O)c2ccccc2)Oc2c(NS(=O)(=O)c3cccs3)cccc2C1=O,-9%,-2,1,/,2.0,-6
Cc1ccc(S(=O)(=O)N2[C@@H](c3ccc(Br)cc3)C(C(=O)O)=CC[C@H]2c2cccs2)cc1,-12%,0,2,/,-0.4,/
[O-]C1=N/[N+](=C/c2ccccc2)CC1,14%,0,1,-16%,-4.3,-5
COc1cc(CNc2ccc3[nH]c(=O)[nH]c3c2)cc(Br)c1OCc1ccccc1F,8%,-4,-7,-5%,11,-2
Cc1nn(-c2ccccc2)c(C)c1C(=O)OCC(=O)NC(=O)NC1CCCCC1,-4%,-9,-14,-54%[inhibitor],-1.3,-12
O=C(Nc1ccccc1)c1cc(C2COCCN2C(=O)CCCc2ccccc2)on1 (stereo not drawn),/,5,2,/,3.1,-2
CC(C)n1c(O)c(N=NC(=O)C2COc3ccccc3O2)c2ccccc21 (stereo not drawn),12%,-4,-25,14%[15.4 µM],-3.7,-12
NC(=O)NC(=O)C(Nc1ccc(N2CCCCC2)cc1)c1ccccc1 (stereo not drawn),-1%,-13,4,3%,5.0,-2
CN(c1ccc(C(=O)Nc2ccccn2)cc1)S(=O)(=O)c1ccccc1,-1%,/,5,5%,-5.5,-11
Cc1ccc2oc(=O)c3cnn(CC(=O)N4CCCc5ccccc54)c3c2c1,4%,-17,0,?,-6.7,-2
Cc1c(C(=O)NCc2ccccc2)oc2ccc(S(=O)(=O)N3CCC4(CC3)OCCO4)cc12,-6%,-4,2,-4%,0.6,19
CC(C)CNC(=O)c1ccc(C2SCC(=O)N2Cc2ccccc2)cc1 (stereo not drawn),4%,-2,-2,13%[15.4 µM],3.6,-8
CC(CCc1ccccc1)NC(=O)c1ccccc1F (stereo not drawn),0%,/,-2,-44%[inhibitor],0.2,0
COc1ccc2c(c1[N+](=O)[O-])CCC/C2=N/OC(=O)c1ccccc1SC,4%,0,-21,-20%,5.7,18
CC(C)c1ccc(C(=O)NNC(=O)C2CC=CCC2C(=O)O)cc1 (stereo not drawn),10%,12,3,-24%,-2.1,8
Cn1cc(S(=O)(=O)Nc2ccc(F)cc2F)c(=O)n(C)c1=O,8%,-15,-2,-3%,-4.5,0
COc1c(O)cccc1/C=N/NC(=O)Cn1ccnc1C,1%,/,-93*,-14%,1.0,-12
Cc1ccccc1NC(=O)NNC(=O)c1ccc2ccccc2c1O,-3%,1,-6,?,1.0,-5
C[C@@H](NC(=O)c1nc[nH]c1C(=O)N1CCc2ccccc2C1)c1ccccc1,2%,0,0,/,-1.6,-8

# Reformatted with two lines to a compound: entries from further up.
# Order of results – gsp antag | CtBP-E1A inh | Six1-Eya2 inh | gsp ag | D2 ag | D2 PAM
> Cc1c(C(=O)NCc2ccccc2)oc2ccc(S(=O)(=O)N3CCC4(CC3)OCCO4)cc12
  -6% | -4 | 2 | -4% | 0.6 | 19
> CC(C)CNC(=O)c1ccc(C2SCC(=O)N2Cc2ccccc2)cc1 (stereo not drawn)
  4% | -2 | -2 | 13%[15.4 µM] | 3.6 | -8
> CC(CCc1ccccc1)NC(=O)c1ccccc1F (stereo not drawn)
  0% | / | -2 | -44%[inhibitor] | 0.2 | 0

# Some of these compounds in order of length of the SMILES, rising:
SMILES,gsp antag,CtBP-E1A inh,Six1-Eya2 inh,gsp ag,D2 ag,D2 PAM
CC(C)CNC(=O)c1ccc(C2SCC(=O)N2Cc2ccccc2)cc1 (stereo not drawn),4%,-2,-2,13%[15.4 µM],3.6,-8
CCN1C(=O)c2cccc3c(S(=O)(=O)Nc4ccncc4)ccc1c23,1%,0,-1,1%,-1.5,1
CCOC(=O)c1ccc(NC(=O)Cn2c(C)nc3c(sc(=S)n3CC)c2=O)cc1,7%,-4,2,56%,-1.8,-9
Cc1c(C(=O)NCc2ccccc2)oc2ccc(S(=O)(=O)N3CCC4(CC3)OCCO4)cc12,-6%,-4,2,-4%,0.6,19

# Returning to the listing, starting 4 compounds before the break.
SMILES,gsp antag,CtBP-E1A inh,Six1-Eya2 inh,gsp ag,D2 ag,D2 PAM
Cn1cc(S(=O)(=O)Nc2ccc(F)cc2F)c(=O)n(C)c1=O,8%,-15,-2,-3%,-4.5,0
COc1c(O)cccc1/C=N/NC(=O)Cn1ccnc1C,1%,/,-93*,-14%,1.0,-12
Cc1ccccc1NC(=O)NNC(=O)c1ccc2ccccc2c1O,-3%,1,-6,?,1.0,-5
C[C@@H](NC(=O)c1nc[nH]c1C(=O)N1CCc2ccccc2C1)c1ccccc1,2%,0,0,/,-1.6,-8
N/C(=N\OC(=O)c1ccc2c(c1)OCO2)c1cccc([N+](=O)[O-])c1,-7%,-16,?,-3%[15.4 µM],9.6,?
COc1ccccc1C(=O)NC(=O)CSc1nncn1C(C)C,10%,-8,5,-4%,-2.0,11
O=C(NCc1ccccn1)C1C2C=CC(C2)C1C(=O)Nc1ccc(F)cc1 (stereo not drawn),1%,6,0,-4%,-0.5,-4
CC[C@]12c3[nH]c4cc(-c5ccco5)ccc4c3CCN1C(=O)[C@@H](CC(=O)NC(C)(C)C)C[C@@H]2C(=O)N1CCN(C(=O)c2ccco2)CC1,?,-2,-1,/,-0.8,-5
Cc1cc(C(=O)COC(=O)c2ccc3c(c2)OCO3)c(C)n1Cc1cccs1,1%,-6,-8,-3%,-2.6,1
O=C1CC(NS(=O)(=O)c2ccc(F)cc2)CN1c1ccc2c(c1)OCCO2 (stereo not drawn),7%,4,6,-1%,-1.5,-9
Oc1cccc(Nc2nc(-c3ccccc3Cl)nc3ccccc23)c1,-25%,8,-1,3%,3.4,-1
Cc1ccc(NC(=O)C2CSC3(C)CCC(=O)N23)cc1S(=O)(=O)N1CCCCCC1 (stereo not drawn),-15%,0,15,0%,-2.1,0
Cc1ccc(Cc2nc(-c3ccccn3)no2)cc1,9%,0,-2,0%,-2.1,8
CC(C)COCC1CC2(CC(C)(c3csc(N)n3)OC2=O)C(=O)O1 (stereo not drawn),19%,11,7,13%,-4.2,-27
CCN1C(=O)CSC1=NC1C2CC3CC(C2)CC1C3 (stereo not drawn),-6%,9,10,-41%[inhibitor],-3.1,4
Cc1cccc(Nc2nc(N3CCN(C)CC3)nc(N)c2[N+](=O)[O-])c1,-6%,-1,-6,9%,-2.4,3
COc1cccc(/C=N/NC(=O)c2cnccn2)c1O,-1%,-65*,-92*,-58%[inhibitor],-2.8,-5
O=Cc1ccc(Sc2ncccn2)o1,0%,2,9,40%[15.4 µM],-0.4,-1
COc1ccc(N2C(=O)[C@@H]3[C@H](C2=O)[C@H]2c4ccccc4C=CN2[C@@H]3C(=O)Nc2ccccc2)cc1,2%,-1,-2,13%,-4.8,-13
Cc1ccc(N(CC(=O)Nc2cccc(Cl)c2C)S(C)(=O)=O)cc1,9%,-11,-1,6%,-3.6,-18
Cc1noc(C)c1C(=O)NCc1ccccc1F,3%,-6,-14,0%[15.4 µM],-0.5,-19
O=C(CCn1nnc2ccccc2c1=O)N[C@@H](Cc1c[nH]c2ccccc12)C(=O)O,5%,3,-4,-11%[15.4 µM],-1.4,-1
C/C=C(/C)C(=O)O[C@H]1[C@@H](O)c2c(ccc3ccc(=O)oc23)OC1(C)C,0%,4,-7,-22%,2.5,-9
COC(=O)c1cc(=O)n(Cc2ccco2)c(=Nc2ccc(F)c(Cl)c2)s1,5%,-4,-8,-34%[inhibitor],1.8,1
COc1ccc(S(=O)(=O)N2CCCCCC2)cc1C(=O)NCCc1ccc(F)cc1,?,3,-1,-2%,2.8,4
O=C(Oc1ccc(Cl)c2cccnc12)N1CCCCC1,3%,2,-1,0%,1.7,-2
O=C(c1ccco1)N1CCN(C(=O)c2ccc(-c3cccc(C(F)(F)F)c3)o2)CC1,?,-1,-2,14%[15.4 µM],-0.3,-5
Cc1cccc(CCN(C(=O)Cc2cccs2)C(C(=O)NC2CCCCC2)c2cccnc2)c1 (stereo not drawn),9%,-9,1,0%,0.8,8
Cc1cc(C)n(-c2ccc(C(=O)Nc3ccc(C)c(S(=O)(=O)N4CCOCC4)c3)cc2)n1,35µM*,-76*,-73*,-1%[15.4 µM],11,5
# (cont.)
SMILES,gsp antag,CtBP-E1A inh,Six1-Eya2 inh,gsp ag,D2 ag,D2 PAM
Cn1c(C(=O)N2CCN(c3ccccn3)CC2)cc2ccccc21,-5%,/,6,-29%,-1.5,-4
CCOC(=O)CSc1cc(-c2ccccc2)nc2ncnn12,-5%,-1,4,8%[15.4 µM],-0.1,-8
Cc1cc2nc(/C(C#N)=C/c3ccncc3)[nH]c2cc1C,-1%,-2,-1,?,2.4,-12
NC(=S)NN=C1CCCCCCCCC1,-3%,23,-10,-13%,-4.3,-28
Cc1cc(Cl)c(S(=O)(=O)Nc2ccccn2)cc1OCC(N)=O,13%,-5,-1,30%,0.7,-17
O=C(NCCCN1CCC(Cc2ccccc2)CC1)C1CC(=O)N(C2CCCC2)C1 (stereo not drawn),6%,1,7,14%,-3.6,3
COCCNC(=O)C(OC(=O)c1cccs1)c1ccc(F)cc1 (stereo not drawn),-1%,/,6,?,-0.4,-25
Cc1ccc(S(=O)(=O)/C(C#N)=C/c2c(N3CCC(C(N)=O)CC3)nc3c(C)cccn3c2=O)cc1,2%,?,?,29%,-3.5,-15
N/C(=N\O)c1ccc(Oc2ccccc2Cl)c([N+](=O)[O-])c1,-7%,/,-5,-3%,-4.2,1
COc1ccc(-c2cc3ccc(O)cc3oc2=O)cc1OC,4%,10,8,?,8.4,20
COc1ccc(Cc2nc3ccc(C(=O)NCCc4cccc(C)n4)cc3o2)cc1,-15%,/,0,-19%,3.1,-7
COc1ccc(OC)c(N(CC(=O)NN=C2CCN(C)CC2)S(=O)(=O)c2ccccc2)c1,9%,4,4,-2%,2.3,0
COc1ccc(CCN2CC34C=CC(O3)C(C(=O)NCc3ccccc3)C4C2=O)cc1OC (stereo not drawn),3%,3,3,-32%[inhibitor],-4.4,-6
C/C(Cc1ccccc1)=N\NC(=O)CNC(=O)c1ccc(Cl)cc1Cl,3%,1,3,26%,3.5,-2

# High-throughput results (PubChem BioAssay)
